NPR1 antag – blocks ANP-stimulated signaling of human Npr1 receptor. P16066. HEK293 hNpr1 GloSensor cGMP, ANP-stimulated luminescence. Potency, µM (doses to about 46.3 µM), for the others: at the highest dose activity change, negative = inhibition, hits mostly inhibitors. actives 1.6% (n = 76,000); active = well fitted inhibition curve with a large enough effect; inconclusive = small, poorly fitted or top-dose-only effect; inactive = no such curve, though single readings can be large or run the other way;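 also: nearly all actives have a fitted effect of over 60% in size; nearly all hits also lower the signal before the agonist is added; a reference antagonist and vehicle were the controls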
Target sequence (P16066 whole entry, looked up): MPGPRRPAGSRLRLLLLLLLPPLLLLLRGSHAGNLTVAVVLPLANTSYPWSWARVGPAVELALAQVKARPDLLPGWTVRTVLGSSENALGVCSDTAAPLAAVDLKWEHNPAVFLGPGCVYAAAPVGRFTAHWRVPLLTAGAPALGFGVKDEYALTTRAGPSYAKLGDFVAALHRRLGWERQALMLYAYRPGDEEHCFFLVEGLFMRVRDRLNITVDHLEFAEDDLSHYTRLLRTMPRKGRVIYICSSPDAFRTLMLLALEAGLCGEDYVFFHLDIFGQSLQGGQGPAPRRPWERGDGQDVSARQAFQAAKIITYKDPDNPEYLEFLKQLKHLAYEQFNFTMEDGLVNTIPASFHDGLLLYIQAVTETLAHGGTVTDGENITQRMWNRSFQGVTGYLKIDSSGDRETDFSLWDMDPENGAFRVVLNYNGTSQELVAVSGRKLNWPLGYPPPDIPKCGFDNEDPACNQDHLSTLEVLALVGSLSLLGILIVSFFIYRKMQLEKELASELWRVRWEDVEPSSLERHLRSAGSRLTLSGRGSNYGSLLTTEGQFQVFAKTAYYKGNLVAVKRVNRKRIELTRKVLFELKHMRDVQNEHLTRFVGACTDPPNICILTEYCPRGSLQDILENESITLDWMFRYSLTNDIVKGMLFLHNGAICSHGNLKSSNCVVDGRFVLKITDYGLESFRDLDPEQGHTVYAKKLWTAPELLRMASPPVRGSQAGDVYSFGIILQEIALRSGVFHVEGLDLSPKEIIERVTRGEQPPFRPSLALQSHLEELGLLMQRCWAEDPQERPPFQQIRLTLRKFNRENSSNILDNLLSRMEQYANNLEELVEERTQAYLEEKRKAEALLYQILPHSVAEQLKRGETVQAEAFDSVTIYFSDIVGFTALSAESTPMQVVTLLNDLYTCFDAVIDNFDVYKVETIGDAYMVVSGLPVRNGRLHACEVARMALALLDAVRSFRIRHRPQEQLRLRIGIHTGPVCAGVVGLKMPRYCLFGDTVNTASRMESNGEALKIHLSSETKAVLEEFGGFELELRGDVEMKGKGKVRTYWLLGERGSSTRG
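HEK293 cells stably expressing human Npr1 and cGMP GloSensor pGS-40F, loaded 2 h with 2% GloSensor reagent, given compound 30 min at room temperature. Luminescence read before and 20 min after 0.1 nM hNppA.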
* marks the source's active call; other numbers are inactive results; ? = inconclusive; & = joins results of further samples; [ ] = remark or other dose. % is scaled to controls: 0 for no effect and ±100 for the full control effect; potency is read from the fitted curve at half-maximal effect.

The opening 5 records, to show the layout:
NPR1 antag | molecule
-13.0% | CN(C)S(=O)(=O)N1CCC(Oc2ccc(C(=O)NCCc3ccncc3)cc2)CC1
? | CN(C)c1cccc(C(=O)N2CCC(n3cc(-c4nc(-c5ccccc5)no4)nn3)C2)c1 (stereo unspecified)
1.2% | COCCN1CCCC2(CCN(C(=O)CCn3cncn3)C2)C1=O (stereo unspecified)
0.6% | CCS(=O)(=O)N1CCc2nc(N(C)Cc3cccnc3)[nH]c(=O)c2CC1
0.0%&-6.3% | O=C1NC2(CCCN(Cc3ccc(C(F)(F)F)cc3)C2)COc2ccccc21 (stereo unspecified)

This part in full, repeating the preview:
NPR1 antag | molecule
-13.0% | CN(C)S(=O)(=O)N1CCC(Oc2ccc(C(=O)NCCc3ccncc3)cc2)CC1
? | CN(C)c1cccc(C(=O)N2CCC(n3cc(-c4nc(-c5ccccc5)no4)nn3)C2)c1 (stereo unspecified)
1.2% | COCCN1CCCC2(CCN(C(=O)CCn3cncn3)C2)C1=O (stereo unspecified)
0.6% | CCS(=O)(=O)N1CCc2nc(N(C)Cc3cccnc3)[nH]c(=O)c2CC1
0.0%&-6.3% | O=C1NC2(CCCN(Cc3ccc(C(F)(F)F)cc3)C2)COc2ccccc21 (stereo unspecified)
-6.5% | COc1cccc(-c2cc(C3CCN(C(=O)Nc4ccccc4C(F)(F)F)CC3)[nH]n2)c1
-1.2% | O=C(CCC1CCCN(S(=O)(=O)c2ccccc2F)C1)NCCCN1CCOCC1 (stereo unspecified)
6.2% | O=C(c1cccs1)N1CC(Oc2ccc(-c3nc(-c4ccccc4)no3)cc2)C1
-11.6%[70.6 µM] | Cc1ccccc1-c1cc(-c2ccc(=O)[nH]c2)c2cncn2c1
1.6% | COc1nccnc1NC1CCN(C(=O)NCCc2ccccc2)CC1
-0.9% | COc1cccc(C(=O)N2CCC(n3cc(-c4nc(C)no4)nn3)C2)c1 (stereo unspecified)
? | COc1ccc(F)c(CN2CCC(CCC(=O)N3CCN(c4ccccc4)CC3)CC2)c1
-3.2%[70.6 µM] | COc1ccccc1CN1CCNc2cc(-c3ccccc3)ncc2C1
3.6% | c1ccc(-n2cnnc2CC2CCNCC2)cc1
1.6%[70.6 µM] | O=C(C[C@@H]1C[C@H]2O[C@H](CNC(=O)N3CCOCC3)[C@@H](O)[C@H]2O1)N1CCC(F)(F)C1
1.2%[70.6 µM] | Cc1ccsc1-c1[nH]nc2ncc(-c3cn[nH]c3)nc12
-8.2%[70.6 µM] | Cc1nn2c(c1-c1ccccc1C(C)C)N(Cc1ccc(C(=O)O)s1)CCC2
0.5% | CCN(CC)Cc1cnc2c(C(=O)N3CCOC(C(F)(F)F)C3)cnn2c1 (stereo unspecified)
-4.7%[70.6 µM] | Cc1csc(NC(=O)c2nc3c(o2)CCN(CC2CC2)CC3)n1
? | O=C(NC1CCN(Cc2ccccc2)CC1)c1nnn2c1COC(c1ccc(F)cc1)C2 (stereo unspecified)
0.5% | O=C(CN1C(=O)NC2(CCCCC2)C1=O)Nc1ccc2c(c1)OCO2
3.7% | CC(C)N1CCC(C(=O)N2CCCN(Cc3cccs3)CC2)CC1
-20.7% | COc1ccc(C(=O)NCCn2ccn3nc(-c4ccc(C)c(C)c4)cc3c2=O)cc1F
-2.4% | COc1ccccc1CNC(=O)C1CCN(C(=O)c2nnn3c2COC(c2ccc(C)cc2)C3)CC1 (stereo unspecified)
5.1% | Cc1ccc(F)cc1S(=O)(=O)N1C[C@@H](F)C[C@H]1C(=O)N1CCc2ccccc2C1
25.3%&4.7%[70.6 µM] | CN(Cc1ccc(F)cc1)Cc1cccn1C
-25.0% | O=C1OCCCN1CCNc1ccc(-c2nc(-c3ccccc3F)no2)cn1
-22.0%[70.6 µM] | Clc1cccc(CN2CC[C@H](c3nnc(-c4ccncc4)o3)C2)c1
-7.3% | CCc1noc(-c2cccn3c(CNC(=O)Cc4ccc(F)cc4)nnc23)n1
-18.1% | Cc1ccccc1C(=O)NC1CCN(c2cc(-c3ccc(Cl)cc3)[nH]n2)CC1
5.8%[70.6 µM] | CCOCC1(C)COc2ccc(C(=O)Nc3cccnc3)cc2N1 (stereo unspecified)
4.9%[70.6 µM] | Cc1ccc(-c2nnc([C@H]3CCN(C(=O)Nc4ccc(F)cc4)C3)o2)cc1
5.1% | O=C(O)CCNC(=O)Cn1nc2c(cc1=O)CCCC2
8.8% | COc1ccccc1C(=O)N1CCC(N2C[C@H](O)C[C@H]2C(=O)NC2CCCCC2)CC1
0.0% | COc1ccc(-c2ccnc3nc(-c4ccccc4OC)nn23)cc1OC
4.3% | COCCN1CCC(N2CCN(S(=O)(=O)c3ccc(Cl)s3)CC2)C1=O (stereo unspecified)
0.8%[70.6 µM] | O=C1[C@@H]2C[C@@H](O)CN2C2(CN(Cc3ccoc3)C2)C(=O)N1Cc1cccc(Cl)c1
-19.3% | Cc1ccc(S(=O)(=O)N2CCCC(Cn3c(C)nc4cccnc43)C2)cc1 (stereo unspecified)
2.2% | CCCNC(=O)C1COC2(CCN(C(=O)c3ccc(OC)cc3)CC2)N1C(=O)c1ccc(F)cc1 (stereo unspecified)
4.4% | FC(F)(F)c1cccc(C2=NOC3(CCN(Cc4ccccc4)CC3)C2)c1
5.0% | COc1ccc(CN2CC3(CCN(C(=O)Nc4ccccc4)CC3)C2=O)cc1
-11.9% | c1ccc2c(c1)CCN2c1nccnc1OC1CCNC1 (stereo unspecified)
? | OC(c1cccc(C(F)(F)F)c1)c1nc(Nc2ccc3c(c2)OCO3)n[nH]1 (stereo unspecified)
0.0% | O=C(CCc1nc(C2CCCN2C(=O)C2CC2)no1)N1CCc2ccccc21 (stereo unspecified)
-8.5%[70.6 µM] | CN(C(=O)[C@@H]1C[C@@H](c2ccc(F)cc2)N([S+](=O)([O-])c2ccccc2)C1)c1cccnc1
-5.5% | Cc1nn(C)c(C)c1CCN(C)C(=O)C1CCN(C(=O)N2CC3CC(C2)[C@H]2CCCC(=O)N2C3)CC1 (stereo partly specified)
-0.8% | O=C1CCN(C(=O)c2cccnc2)CCCC(C(=O)NCc2ccccc2)CCN1 (stereo unspecified)
1.7% | O=C(Cc1cccc(F)c1)N1CCCC(c2nc(C3CCOCC3)no2)C1 (stereo unspecified)
3.7% | O=C(c1ccsc1)N1CCC(c2n[nH]c(=O)n2Cc2ccc(F)cc2)CC1
1.4% | CCn1c(CO)nnc1C1CC(NC(=O)c2cccc3c2OCCO3)C1 (stereo unspecified)
-24.8% | CCOc1ccc(-c2[nH]ncc2CNC(=O)c2ccc(N(C)C)cc2)cc1
-16.5% | COc1ccc(C2Cn3nnc(-c4nc(-c5ccccc5OC)no4)c3CO2)cc1 (stereo unspecified)
-26.4%[70.6 µM] | CC1(C)[C@H](Cc2cc(COc3ccccc3)on2)C[C@@H]1NC(=O)Nc1ccccc1
2.2% | COc1ccc(OC2CCN(C3CCCC3)CC2)c(C(=O)NCCCN2CCCC2=O)c1
6.5% | CCN(CC)C(=O)N1CCC2(CC1)CC(N1CCN(c3ccccc3)CC1)CCO2 (stereo unspecified)
-3.3% | O=C(CCC1CC1)N1CCN(c2ncnc3ccsc23)CC(O)C1 (stereo unspecified)
2.4% | Cc1ccc(NS(=O)(=O)c2ccccc2)c(=O)n1CC(=O)N1CCN(CC(C)C)CC1
5.8% | Cc1c(CN2CCN(Cc3cccs3)C(CCO)C2)cnn1C (stereo unspecified)
0.3% | Cn1cnnc1CC1CCN(C(=O)CN2CC(c3ccccc3)CC2=O)CC1 (stereo unspecified)
-23.0% | COC(=O)[C@@H]1Cc2c([nH]c3ccccc23)[C@H]2C[C@H](NCc3cccs3)C[C@@H](c3ccccc3)N21

Carrying on:
NPR1 antag | molecule
1.9% | Cc1cccc(OCC(=O)N2CCCC(n3cc(-c4nc(C5CC5)no4)nn3)C2)c1 (stereo unspecified)
-18.3% | COc1ccc(CC(=O)Nc2ccc3ncnc(N4CCCCC4)c3c2)c(Cl)c1
0.5% | Cc1ccc(CNC(=O)c2ccc3c(c2)N(C)C2CCCN2C3=O)cc1C (stereo unspecified)
? | CN1CCCCCC(O)c2cc(C(=O)Nc3cccc(OC(F)(F)F)c3)ccc21 (stereo unspecified)
-0.1% | COc1cccc(OC)c1CN1CCC2(CC1)CC(O)CCO2 (stereo unspecified)
-14.6% | COc1cccc(C(=O)NC2CCN(c3cnn(CC4CC4)c(=O)c3)CC2)c1
-0.6% | Cc1ccc(NC(=O)Cn2ccn3nc(-c4ccc(F)cc4)c(CO)c3c2=O)cc1
-12.4% | O=C(N[C@H]1CCN2C(=O)c3cc(-c4ccc(F)cc4F)ccc3NC(=O)[C@H]12)c1cccc(F)c1
3.6% | CN(C)C[C@@H]1CN(Cc2cccnc2)C[C@H]1NC(=O)c1ccc(Cl)s1
-0.1% | CN(C)c1ccc(C(=O)NC[C@H]2O[C@@H](CC(=O)N3CCN(c4ccccc4)CC3)[C@H](O)[C@@H]2O)cc1
5.7% | CCOC(=O)c1ccc(NC(=O)CN2C(=O)NC3(CCCCC3)C2=O)cc1
-1.5% | CCc1nc2c(c(-c3ccc(Cl)cc3)n1)CN(CCC(C)C)CC2
-0.3%[70.6 µM] | CC(C)NC[C@H]1O[C@@H](CO)[C@@H](O)[C@H]1N1CCCC1
1.1% | OC1(CN2CCC(c3nnc4ccccn34)CC2)CNCCOC1 (stereo unspecified)
5.8% | CN1CCC2(CCC1=O)CN(CC(=O)NCc1ccccn1)CCN2C (stereo unspecified)

Part of the list above, bar-delimited:
Molecule | NPR1 antag
COc1cccc(OC)c1CN1CCC2(CC1)CC(O)CCO2 (stereo unspecified) | -0.1%
COc1cccc(C(=O)NC2CCN(c3cnn(CC4CC4)c(=O)c3)CC2)c1 | -14.6%
Cc1ccc(NC(=O)Cn2ccn3nc(-c4ccc(F)cc4)c(CO)c3c2=O)cc1 | -0.6%

Going on with the list:
NPR1 antag | molecule
0.5% | CC[C@@]1(C(=O)O)C[C@H](C(=O)N(C)CCOC)[C@H](c2ccc(OC)cc2)N1C
1.4% | CCCOc1ccccc1C(=O)N1CCC2(CC1)[C@H](O)C[C@@H]2OCCN
-8.4% | COc1cccc(CN2CCCCC2c2nc(CCOCC3CCOCC3)no2)c1 (stereo unspecified)
-16.8% | O=C(NCc1cccnc1)C1CCC(=O)N1C1CCN(C(=O)Cc2cccc(F)c2)CC1 (stereo unspecified)
-28.0%[70.6 µM] | Cc1cccc(CN2C[C@@H]3C(C(=O)Nc4ccccc4)=NO[C@@H]3C2)c1
-24.0%[70.6 µM] | CN1C[C@H](C(=O)Nc2cccc(F)c2)C[C@H]1c1cccc(C(F)(F)F)c1
3.0% | O=C(NC1CCS(=O)(=O)C1)c1cc2c(s1)CN(C1CCCC1)C2 (stereo unspecified)
0.0% | Cc1ccc(CNC(=O)CC2CCOCC2)cc1C
4.7% | CNS(=O)(=O)CCNc1nccc(-c2cc(C(=O)O)ccn2)n1
-0.7% | O=c1[nH]c(N2CCOCC2)nc2c1CCN(Cc1cc(F)c(F)cc1F)CC2
? | CC1(C(=O)NCc2ccc(F)cc2)COCc2cnc(Nc3ccccc3)nc21 (stereo unspecified)
8.4% | COc1ccccc1NC(=O)Nc1ccc2n(c1=O)C[C@H]1C[C@@H]2CN(C(=O)Cc2cccs2)C1
0.5% | CN(C)CCNC(=O)C1(C)CN(Cc2ccccc2)Cc2ccc(Nc3ccccc3)nc21 (stereo unspecified)
3.4% | CCCN1C(=O)Cc2ccccc2C1C(=O)NCc1ccc(F)cc1F (stereo unspecified)
-10.5% | COc1ccc(C(CC(=O)N(C)C)c2ccccc2)cc1 (stereo unspecified)
-0.1% | Cc1ccc2[nH]c(CN3CCCC4(CC3)CN(C)C(=O)O4)cc(=O)c2c1 (stereo unspecified)
-0.7% | Nc1ncc(-c2ccc(-c3cc(NC4CCCC4)nc4[nH]ccc34)cc2)[nH]1
-0.7% | Cc1noc([C@@H]2CC(F)(F)CN2S(=O)(=O)c2ccc(F)cc2)n1
-2.2%[70.6 µM] | COc1ccccc1-c1cn2c(n1)CO[C@@H](CNC1CCOCC1)C2
-1.3% | COc1cccc(CNC(=O)CC2=C3CCCCC3NC2=O)c1OC (stereo unspecified)
1.5% | COc1ccc(C[C@H](NC(=O)C2=C[C@@H](NC(=O)CS(=O)(=O)c3ccccc3)[C@@H](O)[C@H](O)C2)C(N)=O)cc1
4.1%[70.6 µM] | Cc1ccccc1-c1[nH]nc2ncc(-c3ccnn3C)nc12
-4.4% | Cc1cc(C(=O)N[C@@H]2CN(c3ncccn3)C[C@H]2CO)n(C)n1
-0.8% | COCc1noc(CC2CCOC3(CCN(C(=O)c4ccc5[nH]ccc5c4)CC3)C2)n1 (stereo unspecified)
-13.3% | Cc1ccc(C(=O)Nc2ccc(-c3nnc4n3CCCC4)cc2)s1
-9.3%[70.6 µM] | CCCCc1cc(C[C@H]2CNCC[C@H]2CC(=O)Nc2ccccc2)no1
5.2% | COc1ccc(F)c(CN2CCCC(O)(CN3CCC(CCO)CC3)C2=O)c1 (stereo unspecified)
-3.2% | CCN(C1CCOCC1)C1CN(C(=O)c2cnn(C)c2)C1
-15.4% | CC(C)(O)CCc1ccc(C(=O)NCCSc2ccccn2)cc1
2.0%[70.6 µM] | CN(C)C[C@H]1O[C@@H](CO)[C@@H](O)[C@H]1N1CCN(C)CC1
-2.4% | CC[C@@]1(C(=O)O)C[C@H](C(=O)N(C)CC(=O)O)[C@H](c2ccc(OC)cc2)N1C
4.4% | COC[C@@H]1CN(C(=O)c2ccccc2OC)C[C@H]1c1nc(C2CC2)no1

Bioassay records from PubChem.

Not all compounds are listed. The share of hits here may be higher or lower than overall.
